# Screens (PubChem BioAssay)
# RecA intein inh: Mtb RecA intein splicing inhibitors, primary screen, biochemical, fluorescence, HTS; AID 2221, 2009; actives 0.75% (n = 290,000); cell-free RecA intein splicing; inhibition, %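 (about 9 µM by stock and volumes)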; in the data active = inhibition above about 30%; inconclusive = no clear call, values can overlap the other calls;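 also: 0% = vehicle wells and 100% = reference inhibitor control wells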
# Target sequence (P9WHJ3 whole entry, looked up): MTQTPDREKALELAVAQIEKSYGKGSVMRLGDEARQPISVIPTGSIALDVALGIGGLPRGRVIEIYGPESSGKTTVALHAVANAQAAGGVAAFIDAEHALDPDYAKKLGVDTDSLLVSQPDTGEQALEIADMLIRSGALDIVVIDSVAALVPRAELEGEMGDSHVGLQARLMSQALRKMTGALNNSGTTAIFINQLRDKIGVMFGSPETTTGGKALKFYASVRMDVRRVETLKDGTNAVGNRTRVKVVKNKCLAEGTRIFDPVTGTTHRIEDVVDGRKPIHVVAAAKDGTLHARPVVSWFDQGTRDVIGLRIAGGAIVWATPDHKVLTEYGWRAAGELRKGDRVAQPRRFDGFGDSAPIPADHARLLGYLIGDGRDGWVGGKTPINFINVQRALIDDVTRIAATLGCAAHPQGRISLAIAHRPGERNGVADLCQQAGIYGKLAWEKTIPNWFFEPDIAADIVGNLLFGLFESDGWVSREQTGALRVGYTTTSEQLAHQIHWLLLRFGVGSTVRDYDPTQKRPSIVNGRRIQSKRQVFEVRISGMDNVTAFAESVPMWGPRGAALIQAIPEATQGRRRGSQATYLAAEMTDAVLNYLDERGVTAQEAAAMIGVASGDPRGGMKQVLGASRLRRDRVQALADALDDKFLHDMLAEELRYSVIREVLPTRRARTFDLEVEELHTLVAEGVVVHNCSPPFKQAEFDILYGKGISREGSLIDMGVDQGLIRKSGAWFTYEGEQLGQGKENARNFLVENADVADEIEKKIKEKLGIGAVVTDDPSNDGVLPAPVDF
# YopH inh: YopH tyrosine phosphatase inhibitors, primary screen, biochemical, fluorescence Ex485/Em525. inhibition, %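 (about 10 µM by stock and volumes)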. actives 0.16% (n = 140,000). AID 898, 2007;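 active = inhibition of 50% or more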;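 also: controls were vehicle for no effect and minimum signal wells for full effect; inactives centre near -20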
# Mtb H37Rv: M. tuberculosis H37Rv growth inhibitors, H37Rv strain (AID 1626) | M. tuberculosis H37Rv growth inhibition; higher % means a stronger effect | one-dose inhibition, % at 10 µM; IC50 in µM for titrated hits | actives 0.95% (n = 220,000);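 active = confirmed in a dose series; inconclusive = inhibition above 80% but not taken into the dose series; inactive = below 80% or under 30% at every dose of the series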;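 also: bacteria incubated seven days before Alamar blue readout; 0% = bacteria only wells and 100% = bacteria with antibiotic wells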
# Mtb bLac sens: beta-lactam sensitization of Mtb H37Rv, H37Rv. actives 0.27% (n = 330,000). M. tuberculosis H37Rv growth with meropenem, percent inhibition; hits of this screen are not shown here. inhibition, % at 25 µM. AID 434955, 2010;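 active = about 74% or more and at least 40 points above the plate without the antibiotic, then above 30% in a dose series; inconclusive = first-round hits that could not be retested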;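 also: growth measured after seven days incubation then overnight dye step; 0% = bacteria only wells and 100% = bacteria with antibiotic; twin plates without the antibiotic show which effects depend on it; some results filed as inactive read as strong as hits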
# Arbovirus inh: antivirals against arbovirus infection, primary screen, cell-based, full library, 10K replicate subset; actives 0.37% (n = 200,000); inhibition, % at 10 µM; AID 1251, 2008; arbovirus infection cell-based antiviral screen;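 active = inhibition from about 30%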;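 also: bluetongue infection of BSR cells; cell survival read as ATP light after 72 h; 0% = infected wells without compound and 100% = uninfected wells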
# Arbovirus inh repeat: recorded beside Arbovirus inh, whose call it bears; inhibition, %; measured here: 10K subset replicate screen; many hits read low in the repeat;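 first of two repeat runs on a subset; 0% = infected and 100% = uninfected wells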
# * = called active by the depositor; ? = inconclusive; / = no result given.
SMILES,RecA intein inh,YopH inh,Mtb H37Rv,Mtb bLac sens,Arbovirus inh,others
N/C(=N\OC(=O)CCCOc1ccccc1)c1cccc(Br)c1,4.4,/,4%,69,-2,
CCN(CC)CCCNc1nc2ccccc2c2nc(-c3ccncc3)nn12,-1.4,/,/,0,/,
CCCCCCCCCCNC(=O)CCn1[nH]c(=O)c2ccccc2c1=O,4.7,-43,-7%,4,/,
COc1ccc(NC(=O)CN(C)C(=O)c2cc(-c3ccc(OC)cc3)nc3ccccc23)cc1,1.9,/,/,78,/,
CC1CN(C(=O)CCC(=O)NCc2ccccc2)c2ccccc2S1 (stereo not drawn),9.3,/,/,-5,/,
CC(C(=O)NCc1cccnc1)N1C(=O)c2ccccc2C1=O (stereo not drawn),0.8,-31,-3%,-3,3,
Cc1ccc(CCNc2ccc3ccccc3c2)cn1,38*,35,10%,58,14,
CCn1cc(CNC(=O)c2cc(Cl)ccc2OC)c(C)n1,1.1,-32,-12%,4,1,Arbovirus inh repeat=-5
COc1cccc2c1OCC(CN1CCN(Cc3ccccc3)C(CCO)C1)=C2 (stereo not drawn),-10,/,-10%,2,-5,
COCC(=O)N1CCC(Oc2ccc(C(=O)N(C)C3CCCCC3)cc2)CC1,-1.5,/,/,-2,/,
CSc1ccccc1NC(=O)Nc1ccc(F)c(Cl)c1,3.1,17,1%,-8,7,
COC(=O)c1cccc(NC(=O)CCCOc2cccc(C)c2)c1,2.8,-30,-10%,1,-5,
CCc1ccc(N2CC(C(=O)Nc3cccc(S(=O)(=O)N4CCCC4)c3)CC2=O)cc1 (stereo not drawn),2.6,/,/,0,/,
Cc1ccc(C(=O)Nc2cc([N+](=O)[O-])ccc2C)cc1,1.6,/,-9%,3,5,
C=CCn1c(SCC(=O)Nc2cccc(C(=O)OC)c2)nnc1C(C)NC(=O)c1cccs1 (stereo not drawn),0.1,-18,-5%,-15,6,
CCCc1nc2oc(C(=O)OCC)c(N)c2c2c1COC(C)(C)C2,-1.5,-42,-6%,100,0,
Cc1nnc(NC(=O)CSc2ncc(-c3ccccc3)[nH]2)s1,-0.1,/,-1%,-7,/,
C=CCN1C=C2C(=O)C(C)(OC(=O)c3ccc(OC)cc3)C(=O)C(c3ccco3)=C2C=C1CCCC (stereo not drawn),2.0,/,-9%,2,/,
CCC1C(=O)N(C)CCc2ccccc21 (stereo not drawn),-0.6,-36,-4%,-1,0,
CCc1ccc(C(=O)COC(=O)c2n[nH]c3ccccc23)cc1,1.6,/,3%,32,9,

# In the list so far, these have a Cl atom:
SMILES,RecA intein inh,YopH inh,Mtb H37Rv,Mtb bLac sens,Arbovirus inh,others
CCn1cc(CNC(=O)c2cc(Cl)ccc2OC)c(C)n1,1.1,-32,-12%,4,1,Arbovirus inh repeat=-5
CSc1ccccc1NC(=O)Nc1ccc(F)c(Cl)c1,3.1,17,1%,-8,7,

# Returning to the listing; the 2 compounds before the break are reprinted first.
SMILES,RecA intein inh,YopH inh,Mtb H37Rv,Mtb bLac sens,Arbovirus inh,others
CCC1C(=O)N(C)CCc2ccccc21 (stereo not drawn),-0.6,-36,-4%,-1,0,
CCc1ccc(C(=O)COC(=O)c2n[nH]c3ccccc23)cc1,1.6,/,3%,32,9,
Cc1ccc(S(=O)(=O)N2CCC(C(=O)N3Cc4ccccc4C3)CC2)cc1,-1.0,-29,2%,-15,0,
CN(C)CCCN(C(=O)c1cc(-c2cccs2)nc2ccccc12)c1nc2c(F)cccc2s1,7.4,/,/,-8,/,
O=C(CSc1nnc(-c2ccc(O)cc2)o1)Nc1ccccc1Br,-3.9,/,/,-10,/,
CCCN(C(=O)COC(=O)CNC(=O)c1ccc2ccccc2c1)c1c(N)n(Cc2ccccc2)c(=O)[nH]c1=O,1.4,/,/,-5,/,
Cc1ccc(NC(=O)C(C)N2C(=O)c3ccccc3C2=O)nc1 (stereo not drawn),-2.3,/,-3%,2,2,
CC(C)c1ccc(C(O)P(=O)(OC2CCCCC2)OC2CCCCC2)cc1 (stereo not drawn),4.3,/,5%,9,/,
CCCCn1nc(C(=O)NC2=NCCS2)c2ccccc2c1=O,0.2,-9,6%,-2,4,
O=C(COc1ccccc1F)NCc1nc2ccccc2[nH]1,-0.4,/,0%,-1,7,
O=C1C(NS(=O)(=O)c2ccccc2)=C(N2CCN(c3ccc(F)cc3)CC2)C(=O)c2ccccc21,6.0,/,30%,53,/,
NC(=O)CC[C@@H]1NC(=O)[C@H](CO)NC(=O)c2cc([N+](=O)[O-])cc(I)c2NCC[C@@H](C(N)=O)NC1=O,30*,-16,-12%,-4,-6,
CCOc1ccc(/C=C2\SC(N3CCc4ccccc4C3)=NC2=O)cc1,2.5,-8,9%,4,9,
CNc1c([N+](=O)[O-])cnn1-c1ccc(Cl)cc1Cl,-5.0,-38,-4%,8,10,
CSCC[C@H](NC(=O)[C@H](Cc1ccccc1)n1c(=O)[nH]c2ccccc2c1=O)C(=O)N1CCC[C@@H]1C(=O)O,-0.1,/,/,-3,/,
N#Cc1cn(-c2ccccc2)nc1-c1ccc2c(c1)OCCO2,-1.2,-64,-25%,2,-15,
COC(=O)/C(=C\C(=O)c1ccccc1)Nc1cccc(C(F)(F)F)c1,4.1,-19,-6%,-5,1,
Cc1cccc(NC(=S)NCCC(C)C)c1,-4.6,-17,8%,5,-5,
O=S(=O)(c1ccc(Cl)cc1)n1c(Cc2ccccc2)nc2ccccc21,2.1,-20,-1%,-6,6,
O=C(CCn1cccn1)N1CCCC(N2CCN(c3cccc(C(F)(F)F)c3)CC2)C1 (stereo not drawn),1.7,/,/,-1,/,
CN1CCN(S(=O)(=O)c2ccc(N(C)CC(=O)Nc3ccc(F)cc3)nc2)CC1,-0.8,6,-4%,-2,-6,
CCCCCC(=O)N(Cc1ccccc1)c1c(N)n(CCOC)c(=O)[nH]c1=O,-0.9,/,/,-3,/,
C(=N\Nc1nncc2ccccc12)/c1ccccn1,38*,/,/,7,/,
COc1ccc(C(=O)NNC(=O)c2ccc(S(=O)(=O)N3CCOCC3)cc2)cc1,-0.8,/,-8%,-7,4,
COc1cc(OC)c(OC)cc1C=NCC1(c2ccccc2)CCCC1,-0.7,-35,-3%,-1,5,
O=C(NCc1ccco1)C(c1ccccc1)N(Cc1cccnc1)C(=O)Cn1nnc2ccccc21 (stereo not drawn),6.3,-25,3%,1,7,
Cc1nc2nc(SCC(=O)O)nn2c(C)c1Cc1ccccc1Cl,2.0,/,-12%,2,-1,
O=C(NCc1ccccc1Cl)C1CCN(c2ncnc3c2nc2n3CCCCC2)CC1,-0.8,/,/,1,/,
O=C(CNC(=O)c1ccccc1)OC(C(=O)c1ccccc1)c1ccccc1 (stereo not drawn),0.4,-16,-3%,3,-6,
Cc1noc(C)c1S(=O)(=O)Nc1ccccc1N1CCOCC1,1.2,/,-1%,-3,/,
Cc1ccc(NC(=O)CCC(=O)NNC(=O)C(c2ccccc2)c2ccccc2)c(C)c1,/,-40,8%,6,-9,
Cc1cccc(C(=O)N(CCc2ccccc2)Cc2ccccc2)c1[N+](=O)[O-],13,/,/,-3,/,
CC1CCN(C(=O)CN2C(=O)C(C)(C)Oc3ccc(C(=O)NC4CCCC4)cc32)CC1,-0.2,-15,-4%,-15,2,
Cc1nc2ccc(NC(=O)c3ccc(Cl)s3)cc2s1,0.6,-31,30%,1,-2,Arbovirus inh repeat=4
COc1ccc(OC(C)C(=O)Nc2cccnc2)cc1 (stereo not drawn),0.8,-14,-1%,2,-1,
COc1ccc(Cc2nc3ccc(C(=O)NCCc4ccccn4)cc3o2)cc1OC,-6.1,/,/,?,/,
CC(=O)c1cccc(NS(=O)(=O)c2cc3c(cc2C)NC(=O)CO3)c1,0.1,/,/,4,/,
CCOC(=O)C1CCN(Cc2cc(C(C)C)c(O)c(C(C)C)c2)CC1,59*,/,2%,-2,15,
Cc1ccccc1OCC(=O)NNC(=O)CCc1ccccc1,-0.2,/,-2%,2,0,
COc1cccc(CNc2ccc3c(c2)ncn3C)c1OC,-0.9,/,/,9,/,
COC(=O)c1[nH]c2cccc(OC)c2c1NC(=O)CCN1CCC(C)CC1,-1.8,-11,-9%,1,7,
O=C(COC(=O)c1cc2c(s1)CCCC2)Nc1ccc(Cl)cn1,2.2,-33,8%,-3,-2,
CCCCOc1ccc(C2/C(=C(/O)c3ccc4c(c3)CC(C)O4)C(=O)C(=O)N2CCCN2CCOCC2)cc1OC (stereo not drawn),1.8,/,/,-2,/,
COc1ccccc1/C=C1\Oc2cc(OC(=O)N3CCOCC3)ccc2C1=O,-1.4,/,4%,0,/,
CCOC(=O)/C(C#N)=C/c1ccc(SC)cc1,-1.7,/,9%,4,0,
CNC(=S)N/N=C(\C)c1ccc(Cl)s1,0.3,-16,?,95,-7,
CCOc1cccc(C2C(C#N)=C(N)Oc3cc(C)oc(=O)c32)c1OCC (stereo not drawn),-1.6,-49,-4%,-9,-8,
C=CCn1c(SCc2csc(C)n2)nc2sc3c(c2c1=O)CCCC3,11,-19,/,-10,-16,
CCOC(=O)N1CCN(C(=O)COc2ccccc2Cl)CC1,-3.0,-6,-7%,3,3,
CCc1ccc(NC(=O)N(C2CCC(C)CC2)C2CCN(C(C)=O)CC2)cc1 (stereo not drawn),-1.5,-26,-4%,7,1,
CC(C)C(=O)Nc1cccc(-c2cnc3ccccc3n2)c1,0.9,-1,8%,12,-7,
CN(Cc1ccccc1)S(=O)(=O)c1cccc(C(=O)O)c1,4.8,/,1%,-2,0,
CCCn1nnnc1SCC(=O)NCc1ccc(OC)cc1,-3.4,15,-1%,4,4,
CC(=O)Nc1ccc(NC(=O)C(C)OC(=O)CCc2c[nH]c3ccccc23)cc1 (stereo not drawn),-0.4,/,/,9,/,
Cc1ccccc1CC1(CO)CCCN(C(=O)CCN2CCCO2)C1 (stereo not drawn),0.6,/,/,-2,/,

# Of the compounds above, these have two or more sulfur atoms.
SMILES,RecA intein inh,YopH inh,Mtb H37Rv,Mtb bLac sens,Arbovirus inh,others
C=CCn1c(SCC(=O)Nc2cccc(C(=O)OC)c2)nnc1C(C)NC(=O)c1cccs1 (stereo not drawn),0.1,-18,-5%,-15,6,
Cc1nnc(NC(=O)CSc2ncc(-c3ccccc3)[nH]2)s1,-0.1,/,-1%,-7,/,
CN(C)CCCN(C(=O)c1cc(-c2cccs2)nc2ccccc12)c1nc2c(F)cccc2s1,7.4,/,/,-8,/,
Cc1nc2ccc(NC(=O)c3ccc(Cl)s3)cc2s1,0.6,-31,30%,1,-2,Arbovirus inh repeat=4
CNC(=S)N/N=C(\C)c1ccc(Cl)s1,0.3,-16,?,95,-7,
C=CCn1c(SCc2csc(C)n2)nc2sc3c(c2c1=O)CCCC3,11,-19,/,-10,-16,

# Among those listed so far, four contain a nitro group on carbon.
SMILES,RecA intein inh,YopH inh,Mtb H37Rv,Mtb bLac sens,Arbovirus inh,others
Cc1ccc(C(=O)Nc2cc([N+](=O)[O-])ccc2C)cc1,1.6,/,-9%,3,5,
NC(=O)CC[C@@H]1NC(=O)[C@H](CO)NC(=O)c2cc([N+](=O)[O-])cc(I)c2NCC[C@@H](C(N)=O)NC1=O,30*,-16,-12%,-4,-6,
CNc1c([N+](=O)[O-])cnn1-c1ccc(Cl)cc1Cl,-5.0,-38,-4%,8,10,
Cc1cccc(C(=O)N(CCc2ccccc2)Cc2ccccc2)c1[N+](=O)[O-],13,/,/,-3,/,

# The list is partial; rates above refer to the full screens.
